# HTT prom inh – HTT promoter inhibition; actives 0.93% (n = 48,000); Potency, µM (titrated, usually from 57.5 µM), for the others: at the top dose activity change, negative = inhibition, most hits filed as inhibitors; HEK293 HTT promoter firefly luciferase reporter (activity 0% = vehicle and -100% = no light), 24 h; active = well fitted inhibition curve with a large enough effect; inconclusive = small, poorly fitted or top-dose-only effect; inactive = no such curve, though single readings can be large or run the other way; also: nearly all actives have a fitted effect of over 50% in size
#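 Quantitative HTS used concentration series of up to 57.5 uM final on HEK293 luciferase reporter cells, 24 h at 37 degrees C. Readout was Dual-Glo firefly luminescence.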
# PMP22 txn – modulators of PMP22 gene transcription in S16 Schwann cells; S16 Pmp22-F2sN Schwann cells (luciferase reporters placed in the Pmp22 gene), FLuc/NLuc coincidence luminescence, 24 h; Potency, µM (top dose mostly 57.5 µM), without a hit: top-dose activity change, negative = inhibition, most hits filed as inhibitors; actives 2% (n = 43,000); AID 1508649; active = clear falling dose curves in both reporters; inconclusive = both reporters move, but less clearly or upward; inactive = either reporter flat; the % is the NLuc reporter signal; also: % is scaled to controls: 0 for no effect and ±100 for the full control effect; some results filed as inactive show a strong effect at the top dose
#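 S16(c9) Schwann cells with FLuc/NLuc coincidence reporter in the Pmp22 3' UTR; compounds pin-transferred, 24 h at 37C. Dual-luciferase read: FLuc first, then NLuc after Stop&Glo, each 10 min at room temperature.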
# * = called active by the depositor; u = inconclusive; x = no result given; [ ] = another dose, or the depositor's remark. Potency is read from the fitted curve at half-maximal effect.
mol | HTT prom inh | PMP22 txn
COc1cccc(Cn2cc(S(=O)(=O)c3ccc(C)cc3)c(=O)c3cc4c(cc32)OCO4)c1 | 0% | 5%
COc1ccc(N2CCN(C(=O)c3cnc(SC)nc3C)CC2)cc1 | 12% | 0%
CCOc1ccc(C(=O)Nc2ccc(S(=O)(=O)Nc3nc(C)cc(C)n3)cc2)cc1OC | -2% | 24%
CCc1nc2ccccc2n1CCCCOc1ccc(Cl)cc1 | -6% | u
COc1ccc2oc(-c3ccc(C)c(NC(=O)Cc4ccc(Cl)cc4)c3)nc2c1 | -3% | -13%
Cc1ccc(NC(=O)C2CCN(c3nc4ccccc4nc3C(F)(F)F)CC2)cc1F | -9% | -33%
C[C@@H]1CN(CCCn2c3ccccc3c3ccccc32)C[C@H](C)N1 | -22% | x
COc1ccc(C(=O)Nc2nnc(S(=O)(=O)N3CCOCC3)s2)cc1 | -7% | -6%
COc1ccc(NC(=O)Cn2c(=O)n(-c3ccccc3)c(=O)c3ccc(C(=O)NCc4ccc5c(c4)OCO5)cc32)cc1 | -13% | -25%
CCOc1ccc(C2CC(=O)Nc3nc(SCc4ccccc4C)[nH]c(=O)c32)cc1OC (stereo not given) | u | 18%
CCOc1ccc(CNC(=O)C2CCN(S(=O)(=O)c3c(C)noc3/C=C/c3ccc(C)cc3)CC2)cc1OC | -15% | 1%
CC(C)Cn1cc(NC(=O)N2CCN(c3cccc(C(F)(F)F)c3)CC2)c2ccccc2c1=O | u | u
CC1CCN(c2nc3ccc(C(=O)NCc4ccc(Cl)cc4)cc3s2)CC1 | 0.25µM* | 10%
CCOC(=O)c1cccc(NC(=O)c2ncoc2-c2ccco2)c1 | u | u
COc1ccc(-c2c(C)nn3c(N4CCN(c5ccccc5)CC4)cc(C)nc23)cc1OC | -5% | 17µM*
COc1cc(C)c(Cc2cnc(N)nc2N)cc1OC | 0% | x
O=C(CN1CCSc2ccccc21)N1CCN(c2ccccc2)CC1 | 0% | -9%
O=C(Nc1ccc(C(F)(F)F)cc1)C1CCN(c2cnccn2)CC1 | u | -11%
COc1ccccc1CNC(=O)c1c2c(nc3ccccc13)C(=O)N(C1CCCCC1)C2 | -4% | u
CCOC(=O)COc1ccc(F)cc1C(=O)c1ccn2nc(-c3ccc(Cl)cc3)cc2n1 | -3% | -2%
CCn1c(C(=O)N2CCC(C(=O)N3CCN(c4ccc(OC)cc4)CC3)CC2)cc2sccc21 | u | u
O=C(CSc1nc(=O)[nH]c2c1CCC2)NCc1ccccc1 | -18% | 0%
Cc1ccc(C)n1-c1c(C(=O)NCCC(C)C)sc2ncccc12 | -27% | -10%
COc1ccc(CCCc2nnc(SCC(=O)Nc3ccc(F)cc3)o2)cc1C | -6% | -7%
CC(C)(C)c1ccc(C(=O)Nc2ccc3c(c2)CCCN3C(=O)c2cccs2)cc1 | u | -11%
COc1ccc(/C=C/c2nc(C#N)c(N3CCCCCC3)o2)cc1OC | -16% | u
COc1ccc(S(=O)(=O)N(CCc2ccccc2)CC(=O)NCc2ccccc2)cc1 | -33% | 1%
Cc1ccc(NC(=O)CN2C(=O)CCc3cc(S(=O)(=O)N4CCOCC4)ccc32)c(C)c1 | -12% | 13%
Cc1ccc(-c2cc(C(=O)N3CCN(S(=O)(=O)c4ccc(Br)s4)CC3)[nH]n2)cc1C | -21% | u
COC(=O)c1ccc(NC(=O)CCOc2ccccc2)cc1 | 40%[activator] | -20%

# The closing 3 compounds of the section above are carried over, then new ones follow.
mol | HTT prom inh | PMP22 txn
Cc1ccc(NC(=O)CN2C(=O)CCc3cc(S(=O)(=O)N4CCOCC4)ccc32)c(C)c1 | -12% | 13%
Cc1ccc(-c2cc(C(=O)N3CCN(S(=O)(=O)c4ccc(Br)s4)CC3)[nH]n2)cc1C | -21% | u
COC(=O)c1ccc(NC(=O)CCOc2ccccc2)cc1 | 40%[activator] | -20%
CCOC(=O)c1c(S(=O)(=O)N2CCC(C(=O)Nc3ccccc3OC)CC2)c(C)n(CC)c1C | -7% | 2%
CC(C)CCNC(=O)CSc1nc2ccsc2c(=O)n1Cc1ccccc1Cl | u | 0%
Cn1nc(-c2ccccc2F)c2cc(C(=O)N3CCN(c4ccc(F)cc4)CC3)sc21 | u | u
CCCOc1ccc(C2CC(=O)Nc3c2c(C)nn3-c2nncc(-c3cccc(OC)c3)n2)cc1OC (stereo not given) | 4% | -21%
CC(=O)N1CCc2c(sc3c2c(=O)n(CCc2ccccc2)c(=O)n3Cc2ccccc2C)C1 | u | u
COc1cc(C(=O)Nc2ccc3nc(SCc4ccc(C)cc4)sc3c2)cc(OC)c1OC | u | -25%
Cc1ccccc1C(=O)OCc1cc(=O)n2nc(C(C)C)sc2n1 | 62%[activator] | 1%
CCc1cccc(NC(=O)Cn2c(=O)n(-c3ccccc3C)c(=O)c3c2c2cc(C)ccc2n3C)c1 | -35% | -7%
Cc1ccc(NC(=O)c2cccc(C(C)(C)C#N)c2)cc1Nc1ccc2ncn(C)c(=O)c2c1 | u | x
CN(C(=O)CSc1nc(C2CCCC2)nc2c1c(=O)n(C)c(=O)n2C)c1ccccc1 | u | u
CCOC(=O)c1ccc2c(c1)N(Cc1cccc([N+](=O)[O-])c1)C(=O)c1ccccc1S2 | -19% | 19%
NCCS | 14% | x
CSc1cccc(N2C(=O)N(Cc3ccc([N+](=O)[O-])cc3)c3ccccc3S2(=O)=O)c1 | -7% | -33%
Cc1sc(C2C(C#N)=C(N)N(c3ccc(Cl)cc3)C3=C2C(=O)CCC3)cc1CN1CCOCC1 (stereo not given) | -14% | -23%
N#Cc1ccc(NC2=NS(=O)(=O)c3ccccc32)cc1 | -17% | u
CCOc1ccc(NS(=O)(=O)c2ccc(NC(=O)N3CCCC3)cc2)cc1 | -31% | -14%
COc1ccc2c(CNCc3ccc(Cl)cc3)c(C(=O)O)n(Cc3ccccc3C)c2c1 | -24% | 4%
O=S(=O)(c1ccc2nc(N3CCN(c4cccc(Cl)c4)CC3)ccc2c1)N1CCCCC1 | -11% | 3%
Cc1ccc(NC(=O)CN(Cc2ccccc2)S(=O)(=O)c2ccc3nc(C)sc3c2)c(C)c1 | u | -4%
CCN1CCN(C(c2ccccc2Cl)c2c(O)cc(C)n(CCOC)c2=O)CC1 (stereo not given) | -11% | -10%
CCc1ccc(-n2nc(C)c3c(C)cc(=O)n(CC(=O)Nc4ccc(C(C)=O)cc4)c32)cc1 | -16% | u
Cc1nc(-c2ccc(F)cc2)sc1CCNC(=O)c1ccccc1C(F)(F)F | -35% | 11%
Cc1cc(C)n2c(Nc3cccc(C(F)(F)F)c3)c(-c3ccsc3)nc2n1 | u | u
Cc1cc(NC(=O)c2ccc(Br)o2)cc(-c2nc3ccccc3o2)c1O | -12% | u
O=C(c1ccc2c(c1)OCO2)c1cn(Cc2ccc(F)cc2)c2ccccc2c1=O | -25% | -1%
COC(=O)[C@@H]1[C@H]2C[C@@H]3c4[nH]c5ccccc5c4CCN3C[C@@H]2CC[C@@H]1O | 1% | x
Cc1cccc(-c2cc(NC(=O)c3ccccc3C)n(-c3ccccc3)n2)c1 | 10% | -77%
CN(Cc1ccccc1)S(=O)(=O)c1ccc(F)c(C(=O)Nc2cccc(Cl)c2Cl)c1 | -6% | -16%
Cc1ccc(CCNC(=O)c2c(C)oc3ncnc(N4CCOCC4)c23)cc1 | -10% | -1%
O=C(NC1CCN(Cc2ccccc2)CC1)c1ccc(Cn2c(=O)c3ccccc3n(Cc3ccccc3)c2=O)cc1 | -21% | -32%

# Complete entries from above:
# NCCS as listed: HTT prom inh: 14%; PMP22 txn: x
# CCOc1ccc(NS(=O)(=O)c2ccc(NC(=O)N3CCCC3)cc2)cc1 as listed: HTT prom inh: -31%; PMP22 txn: -14%
# CCOc1ccc(C2CC(=O)Nc3nc(SCc4ccccc4C)[nH]c(=O)c32)cc1OC (stereo not given) as listed: HTT prom inh: u; PMP22 txn: 18%

# Further compounds.
mol | HTT prom inh | PMP22 txn
CCCN1C(=O)c2ccccc2CC1(C)C(=O)NC1CCCCC1 (stereo not given) | -24% | 11%
CC1=C(C(N)=O)C(c2ccccc2Br)n2ncnc2N1 (stereo not given) | -6% | 4%
CCOc1ccc(-c2nn(-c3ccccc3)cc2C2NC(=O)NC(C)=C2C(=O)OC(C)C)cc1C (stereo not given) | -20% | u
CCOc1ccc(S(=O)(=O)N2CCN(c3c(C)cccc3C)CC2)c2ccccc12 | -20% | u
COc1ccc(CCNC(=O)C2=C(C)C(=O)OC23CCCCC3)c(OC)c1 | -14% | -26%
O=C(NCCc1csc(-c2cccnc2)n1)c1cccc(C(F)(F)F)c1 | u | u
Cc1ccc(CNC(=O)c2ccc3c(c2)nc2n3CCOC2)cc1 | 6% | -2%
Cc1ccc2occ(-c3cc(-c4ccc(Cl)cc4)nc4c3COc3ccccc3-4)c(=O)c2c1 | -19% | 1%
CC(C)(C)OC(=O)N1CCC(c2c(C(=O)NCc3ccc(F)cc3)cnn2-c2ccc(F)cc2)CC1 | -26% | u
CC(C)c1ccc(C2=CC(c3cccc(Cl)c3)n3c(nc4ccccc43)N2)cc1 (stereo not given) | u | u
Cc1ccc(/C=C(\C#N)C(=O)Nc2cc(C)ccc2C)cc1 | 0% | -34%
COc1ccc(Nc2nc3c(S(=O)(=O)c4ccccc4)nnn3c3ccsc23)cc1OC | -14% | -7%
Cc1cccc(OCC(=O)Nc2ccc(OCc3cc(=O)n4cc(C)ccc4n3)cc2)c1 | 1% | 1%
COc1ccc(NC(=O)c2ccc3c(SCC(=O)O)c4c(nc3c2)CCCC4)c(OC)c1 | -6% | -75%
Cc1nc2ccccc2n1CCc1nc2c3ccccc3nc(SCc3ccc(C#N)cc3)n2n1 | 16% | u
COc1ccc(OC)c(NC(=O)COCc2cc(-c3ccc(F)cc3)on2)c1 | -18% | -11%
O=C(NCCc1ccccc1)C1COc2ccccc2C1 (stereo not given) | 20% | -14%
COc1ccc(NC(=O)C(=O)NCCc2csc3nc(-c4ccccc4C)nn23)cc1 | -7% | u
Cc1c(C(=O)NCCN(C)C)oc2c1-c1nn(Cc3cccc(Cl)c3)cc1CC2 | 0% | u
COc1cc(OC)c(NC(=O)NCCn2nnc3cc(S(=O)(=O)N(C)C)ccc32)cc1Cl | -10% | 67%
Cc1ccc2nc(-c3ccccn3)c(Nc3ccccc3C)n2c1 | 35µM* | u
COc1ccc(-c2nc3sc(CCNS(=O)(=O)c4ccc(F)c(C)c4)c(C)n3n2)cc1 | u | u
COCCCNC(=O)c1ccc(Cn2c(=O)c3ccccc3n(Cc3ccc(C)cc3)c2=O)cc1 | -10% | u
O=C(Nc1cc(Cl)cc(Cl)c1)c1cc(S(=O)(=O)N2CCC3(CC2)OCCO3)ccc1F | u | u
O=C(c1ccccc1)c1ccc2nc(N3CCN(c4ccccc4)CC3)c3nncn3c2c1 | -20% | -25%
CCS(=O)(=O)N1CCc2cc(C(=O)NCc3ccccc3Cl)ccc21 | -4% | -3%
COc1cc(-c2ccno2)ccc1S(=O)(=O)N1CCN(c2ccccc2)CC1 | -17% | -25%
CCc1cccc(C)c1NC(=O)Cn1ncc2c3ccccc3n(Cc3ccccc3)c2c1=O | 11% | 5%
CC(=O)c1cc(-c2ccccc2)n(CC(=O)Nc2ccc(C)c(C)c2)c1C | -27% | -14%
Cc1ccccc1OCC(=O)NCC(c1ccc(Cl)cc1)N1CCCCC1 (stereo not given) | -31% | -4%
O=C(Nc1nnc(N2CCCCCC2)s1)Nc1ccccc1C(F)(F)F | 8% | 15%
Cc1nc(CC(=O)Nc2ccc(N(C)C)cc2)cs1 | 28% | -3%
CC(C)c1ccc(NC(=O)CSC2=Nc3ccccc3C3=NC(CC(=O)NCCc4ccccc4)C(=O)N23)cc1 (stereo not given) | u | u
COc1ccc(OC(=O)c2nc(SCc3ccccc3F)ncc2Cl)cc1 | -3% | u
Cc1ccc(C)c(NC(=O)CN2C(=O)CCc3cc(S(=O)(=O)N4CCCCC4)ccc32)c1 | -19% | u
Cc1ccc(CCNC(=O)c2ccc3c(=O)n(-c4ccc(C)cc4)c(=O)[nH]c3c2)cc1 | 2% | -13%
COc1ccc(NC(=O)C2CCN(S(=O)(=O)c3c(C)noc3/C=C/c3cccs3)CC2)cc1 | -19% | -11%
CCOC(=O)CN1C(C(=O)c2ccccc2)=C(OC(=O)c2ccccc2)c2ccccc2S1(=O)=O | 13% | -53%
COc1ccc(-c2cn3nc(N4CCC(C(=O)Nc5cccc(Cl)c5)CC4)sc3n2)cc1 | 15% | -35%
COc1cn(CC(=O)Nc2cccc(C)c2)c(CN2CCCCC2)cc1=O | -13% | 10%

# From PubChem BioAssay

# Rows were taken by chance. About 2.4% of those tested had a hit in this group.
